Compound activity from PubChem BioAssay.
VACV mCherry inh: inhibitors of vaccinia virus infection (mCherry reporter signal); Vaccinia virus mCherry reporter infection, fluorescence; about a quarter of the inactives have no number; Potency, µM (series often up to 36.5 µM), for inactives: at the top dose activity change, negative = inhibition, usual class: inhibitors; 310,000 compounds, 0.63% hits; AID 720579; active = well fitted inhibition curve with a large enough effect; inconclusive = small, poorly fitted or top-dose-only effect; inactive = no such curve, though single readings can be large or run the other way; tested in A549 cells; also: nearly all actives have a fitted effect of over 35% in size; inactives centre near -10
Vaccinia Venus: vaccinia inhibition (Venus reporter). Vaccinia virus Venus reporter expression, fluorescence. Potency, µM (top dose mostly 36.5 µM), inactives show top-dose activity change, negative = inhibition, hits mostly inhibitors. 330,000 compounds, 0.46% hits. AID 720580; active means well fitted inhibition curve with a large enough effect; inconclusive means small, poorly fitted or top-dose-only effect; inactive means no such curve, though single readings can be large or run the other way; tested in A549 cells; also: nearly all actives have a fitted effect of over 30% in size; inactives centre near -10
An asterisk follows results filed as active; i = inactive; u = inconclusive; x = no result given; & = joins results of further samples; [ ] = another dose, or the depositor's remark. % is scaled to controls: 0 for no effect and ±100 for the full control effect; potency is read from the fitted curve at half-maximal effect. This is a random part of the collection. Share with any hit: about 0.82%.

SMILES | VACV mCherry inh | Vaccinia Venus
COc1ccc(C(=O)N2CCNC(=O)C2)cc1S(=O)(=O)Nc1ccc(Br)cc1 | i | -11%
Cc1cccc(NC(=O)c2ccc(S(=O)(=O)N3CCCCC3)cc2)n1 | -15% | -18%
CCCC(CNC(C)=O)(C1=CCCCC1)c1ccccc1 (centres undefined) | 0% | -22%
O=C(NCc1ccc(F)cc1)c1cnccn1 | i | -11%
N/C(=N\OC(=O)c1ccco1)c1cccc([N+](=O)[O-])c1 | -2% | 0%
Cc1cc2c(cc1C)N(C(=O)CN1C(=O)c3ccccc3C1=O)C(C)(C)c1ssc(=S)c1-2 | -13%[1.46 µM] | -27%
Cn1c(=O)oc2cc(S(=O)(=O)NC3CCCCC3)ccc21 | -29% | 4%
CN1N=C(C(=O)N2CCc3c([nH]c4ccccc34)C2c2c(F)cccc2Cl)CCC1=O (centres undefined) | -17% | -6%
O=C1NC[C@H](Cc2ccc(O)cc2)N(C[C@@H]2CCCN2C[C@H](Cc2ccc(O)cc2)N2C[C@H](Cc3ccccc3)N(CC3CCCCC3)C(=O)C2=O)C1=O | -12% | -12%
CCOC(=O)C1=CCN(S(=O)(=O)c2cccc(Cl)c2)C1c1ccc(C)cc1 (centres undefined) | 13% | 2%
O=C(/C=C\c1ccc2c(c1)OCO2)NC1CC(=O)N(c2ccccc2)C1 (centres undefined) | -4%[7.34 µM] | -8%[7.34 µM]
O=C(OCc1nc2ccc(Cl)cc2n1CCO)c1ccc2c(c1)OCO2 | -12% | u
COC(=O)[C@]1(Cc2ccccc2)N[C@H](CN(C)C(C)=O)[C@@H]2C(=O)N(Cc3ccccc3)C(=O)[C@@H]21 | i | -7%
COc1ccc(/C=C/c2c(-c3ccc(OC)cc3)oc(=O)c3cc(OC)c(OC)cc23)cc1 | -4% | -3%
CCN(CC)c1ccc(/C=C2\CCC(/C=C(/C#N)C(=O)Nc3ccccc3F)=C2N2CCOCC2)cc1 | 36%[activator] | 114%[activator]
CC(C)c1[nH]c(=O)c(C#N)c2c1CSC(C)(C)C2 | -24% | -12%
Cc1ccc(S(=O)(=O)NCc2cccnc2)cc1 | -9% | -11%
COc1ccc(C(C(=O)NC2CCCCC2)N(C(=O)c2ccco2)c2ccc(-n3cnnn3)c(C)c2)cc1 (centres undefined) | -18%[1.46 µM] | -11%
CCOc1ccccc1NC(=O)Cn1nnc(C(=O)Nc2ccc(C)cc2)c1N | u | -10%
CCCN1CCN(CCCNC(=O)Cn2nc(C)n3c(cc4cc(F)ccc43)c2=O)CC1 | -5% | 2%
COc1ccc(C)cc1S(=O)(=O)NCC(c1cccs1)S(=O)(=O)c1ccc(C)cc1 (centres undefined) | -17% | -19%
CCCCC(NC(=O)Cc1c(C)c2cc3c(-c4ccccc4)coc3c(C)c2oc1=O)C(=O)O (centres undefined) | i | -6%
CCOC(=O)[C@H]1[C@H]2COc3ccccc3[C@@H]2N2C(=O)CN(Cc3ccc(C)cc3)C(=O)[C@@]12C | u | 7%
COc1ccc(NC(=O)C2(C)CCN2C)cc1OC (centres undefined) | -12% | 9%
Nc1nc(SCc2ccc(Cl)c(Cl)c2)n[nH]1 | 0% | -19%
CC(=O)c1ccc(-c2[nH]c3ccccc3c2CCN2C(=O)c3ccccc3C2=O)cc1 | u | -10%
Cc1nc2cc(N3CCOCC3)c(NC(=O)C3CC3)cc2c(=O)n1Cc1ccccc1 | -22% | -7%
COc1ccc(NC(=O)COC(=O)CN2C(=O)C3CCCCC3C2=O)cc1 (centres undefined) | -25% | -8%
CC(=O)Nc1ccc(-c2csc(NC(=O)CN3C(=O)NC4(CCCC4)C3=O)n2)cc1 | -12% | -7%
Brc1ccc(CSc2ccc3nnc(-c4cccnc4)n3n2)cc1 | -16% | -19%

Molecules listed so far containing a cyano group, in the order listed:
SMILES | VACV mCherry inh | Vaccinia Venus
CCN(CC)c1ccc(/C=C2\CCC(/C=C(/C#N)C(=O)Nc3ccccc3F)=C2N2CCOCC2)cc1 | 36%[activator] | 114%[activator]
CC(C)c1[nH]c(=O)c(C#N)c2c1CSC(C)(C)C2 | -24% | -12%

Next section:
SMILES | VACV mCherry inh | Vaccinia Venus
COc1cc(NC(=O)C2CCCN2C(=O)OCc2ccccc2)cc(OC)c1 (centres undefined) | x | -15%
O=C1Nc2ccccc2NC(c2ccc3c(c2)OCO3)=C1N(Cc1ccc(F)cc1)C(=O)c1ccco1 | 9% | 9%
CCOc1ccccc1CNC(=O)CSc1n[nH]c(-c2ccccc2Cl)n1 | -20% | -15%
O=C(COc1ccccc1)Nc1nnc(-c2ccccc2Cl)o1 | -16% | -26%
Cc1ccc(C)c(-n2c(-c3ccncc3)n[nH]c2=S)c1 | i | -17%
CC(=O)c1nnn(-c2cccc(C#N)c2)c1C | -20% | -9%
Cc1ccc(OCC(=O)NS(=O)(=O)c2ccccc2)cc1 | -11% | -1%
COC(=O)COc1cccc(NC(=O)c2ccc(Cl)cc2)c1 | 3% | -7%
O=C(COC(=O)C1CCN(c2ccc(C(F)(F)F)cn2)CC1)NCCc1ccccc1 | -5% | 7%
COc1ccc(OC)c(Nc2cc(C(=O)NCCCN3CCOCC3)c3ccccc3n2)c1 | u | -17%
CCC(C)NCCOCCOc1ccc(C)cc1OC (centres undefined) | i | -13%
Cc1cccc(N2C(=O)CSC23C(=O)N(C)c2ccccc23)c1 (centres undefined) | -12% | 2%
O=C(Nc1nnc(-c2ccccc2F)s1)C1CCN(S(=O)(=O)c2ccc(Cl)cc2)CC1 | -7% | -6%
O/N=C/c1cc(Br)cc(Br)c1OCc1ccccc1 | -15% | u
O=C1C2CCCCC2C(=O)N1Cc1ccccc1 (centres undefined) | i | 6%

Fetched one by one from the list above, seven records:
SMILES | VACV mCherry inh | Vaccinia Venus
Cc1ccc(C)c(-n2c(-c3ccncc3)n[nH]c2=S)c1 | i | -17%
COc1cc(NC(=O)C2CCCN2C(=O)OCc2ccccc2)cc(OC)c1 (centres undefined) | x | -15%
Cc1ccc(OCC(=O)NS(=O)(=O)c2ccccc2)cc1 | -11% | -1%
COc1ccc(OC)c(Nc2cc(C(=O)NCCCN3CCOCC3)c3ccccc3n2)c1 | u | -17%
Cc1cccc(N2C(=O)CSC23C(=O)N(C)c2ccccc23)c1 (centres undefined) | -12% | 2%
CC(=O)c1nnn(-c2cccc(C#N)c2)c1C | -20% | -9%
COC(=O)COc1cccc(NC(=O)c2ccc(Cl)cc2)c1 | 3% | -7%

Additional compounds follow.
SMILES | VACV mCherry inh | Vaccinia Venus
O=C(COc1ccc(/C=N/NC(=O)c2ccncc2)cc1)Nc1cccc([N+](=O)[O-])c1 | i | 0%
O=C(COC(=O)c1cc(=O)c2ccccc2o1)Nc1ccccc1F | -9% | 6%
CCCCP(=O)(c1ccccn1)c1ccccn1 | -10% | -10%
Cc1cc(Cl)ccc1NC(=S)NCCC(c1ccccc1)c1ccccc1 | -11% | -25%
Cc1c(C)c2ccc(OCC(=O)N3CCC(C(=O)O)CC3)cc2oc1=O | -4% | 1%
Cc1ccc(-c2nn(-c3ccccc3)cc2C(=O)Nc2cccc(S(=O)(=O)N3CCOCC3)c2)cc1 | i | -13%
CCOC(=O)c1ccc(NC(=O)CSc2ncc(S(=O)(=O)c3ccc(C)c(Cl)c3)c(=O)[nH]2)cc1 | -5% | 9%
O=C(NC1CCCc2ccccc21)C1CCCC1 (centres undefined) | -3% | -5%
COc1ccc(OC)c(C(=O)CSc2nnc(-c3cccnc3)n2C)c1 | x | -4%
CCO[C@H]1OC(C(=O)O)=C[C@@H](c2cn(C(C)=O)c3ccccc23)[C@@H]1CCCO | -14% | 2%
O=C(NCC(c1ccco1)N1CCCC1)c1ccc(-n2cccn2)cc1 (centres undefined) | i | -13%
CNC(=O)c1ccc2nc(NC(C)=O)sc2c1 | -13% | -16%
CC(C)C[C@H]1CN(CCCC[C@H]2CNC(=O)C(=O)N2CC2CCCCC2)C(=O)C(=O)N1CCc1ccc(O)cc1 | -13% | -11%
BrCC(Br)C1CCC(Br)C(Br)C1 (centres undefined) | -3% | -14%
CCOCCCN(C(=O)c1snc(C(N)=O)c1N)C(C(=O)NC1CCCC1)c1ccc(O)c(OC)c1 (centres undefined) | -4% | -16%
CC(C)(CNS(=O)(=O)c1ccc(Cl)cc1)N1CCCCC1 | -9% | -5%
CC(N)c1csc(Nc2ccc(S(C)(=O)=O)cc2)n1 (centres undefined) | 25% | -8%
CCOC1=C2[C@H](c3ccccc3)N(S(=O)(=O)c3ccc(C)cc3)[C@H](C(C)C)[C@H]2n2c(=O)n(-c3ccccc3)c(=O)n2C1 | -3% | -7%
COCCNC(=O)CN(C(=O)Cn1nnc2ccccc21)c1cc(C)cc(C)c1 | -1% | 2%
C#CCNCCS(=O)(=O)N(Cc1ccc(Br)cc1)[C@@H](C)C(=O)O | i | 0%
CCN1CCN(c2c(S(=O)(=O)c3ccc(OC)cc3)cnc3cc(OC)c(OC)cc23)CC1 | -26% | -14%
CCCNC(=O)c1ccc(N2CCC3(CC2)CC(c2ccccc2)=NO3)c([N+](=O)[O-])c1 | -9% | -14%
CC/C(C)=N/NS(=O)(=O)c1ccc(C)c([N+](=O)[O-])c1 | -16% | -12%
CCOc1ccc2nc(NC(=O)CSc3ccccc3)sc2c1 | i[1.46 µM] | u
Cc1ccc(C)c(CN2C(=O)NC3(CCCCCC3)C2=O)c1 | -17% | -19%
COC(=O)C1=CN(c2ccc(C)cc2)C(N)=C(C#N)C1c1ccccc1F (centres undefined) | u | u
COc1ccc(OC)c(NC(=O)CSc2nnnn2C2CCCC2)c1 | -10% | 9%
COc1ccc(S(=O)(=O)NCCCO)cc1-c1nnc2c3ccccc3c(C)nn12 | -15% | -4%
CC1CCCCN1C(=O)CSc1nnc(-c2c[nH]c3ccccc23)o1 (centres undefined) | -4% | -18%
O=C1C=C(N(CCO)Cc2ccccc2)c2ccccc2C1=O | 11µM* | u

The final three records of the part before open the next one.
SMILES | VACV mCherry inh | Vaccinia Venus
COc1ccc(S(=O)(=O)NCCCO)cc1-c1nnc2c3ccccc3c(C)nn12 | -15% | -4%
CC1CCCCN1C(=O)CSc1nnc(-c2c[nH]c3ccccc23)o1 (centres undefined) | -4% | -18%
O=C1C=C(N(CCO)Cc2ccccc2)c2ccccc2C1=O | 11µM* | u
CC1(C(=O)NCC2CC2)Cc2c(-c3ccc4c(c3)OCO4)ccnc2O1 (centres undefined) | -10% | -27%
CCC1COCCS(=O)(=O)N1Cc1ccccc1F (centres undefined) | i | -10%&-8%
Cc1nc(-c2cccc(NC(=O)c3cccs3)c2)cs1 | u | -16%
Cc1ccc(Cn2c(SCC(=O)Nc3cc(C)on3)nc3ccccc3c2=O)cc1 | -10% | u
CCN(CC)C(=O)C1CCN(S(=O)(=O)c2ccc(-n3cnnn3)cc2)CC1 | -7% | -3%
CCCCNS(=O)(=O)c1ccc2nc(-c3cccnc3)cc(C(=O)NCCOC)c2c1 | -9% | -6%
Cc1cccc(Cn2c(CN3CCCC(C)C3)nc3c2c(=O)n(C)c(=O)n3C)c1 (centres undefined) | i | -10%
O=C1C[C@@H]2c3c(cccc3CN1Cc1ccc(Cl)cc1)C[C@@H](O)[C@H]2O | -7% | -10%&-12%
CCOC(=O)Cn1c(=O)n(CC2CCCO2)c2nc(-c3ccc(C)cc3)nc(C(N)=O)c21 (centres undefined) | -16% | -7%
Cc1ccc(-n2nc(C(=O)c3ccccc3)n3c(=O)cc(-c4ccccc4)nc23)cc1 | x | -1%
O=C(CCNC(=O)c1ccc(Br)cc1)Nc1cccc(S(=O)(=O)N2CCCC2)c1 | -28% | -17%
COc1ccc(Cl)cc1C1=NOC2(CCC2)C(=O)N1Cc1cccc(C#N)c1 | 3% | 2%
O=C(Nc1nccs1)C1(c2ccc(Cl)cc2)CC1 | i | -13%
